Env fusion inh: blocks HIV Env-driven cell-cell fusion. HeLa-JRFL Env/CEM21 cell fusion, luciferase. actives 1.1% (n = 360,000). inhibition, % at 12.3 µM;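 active means mean replicate inhibition score of at least 50 and every replicate individually at or above 50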;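 further: 0% = plate neutral controls and 100% = maraviroc near 300 nM; one replicate is shown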
MT1-MMP act inh: inhibitors of human MT1-MMP activation; P50281; HT1080 RFP-PRO-GFP cells, GFP/RFP ratio fluorescence, overnight; percent of plate control window, DMSO zero; GFP/RFP ratio change, % at 20 µM; actives 0.061% (n = 360,000);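 active means GFP/RFP ratio change of at least 30% with cell ATP level not reduced by more than half and red fluorescence within 50% of control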; further: strong numbers were not always called active
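Material: RFP-PRO-GFP reporter HT1080 cells. Dosing: single-point 20 µM compound, 1% DMSO. Controls: DMSO and RFP-L50D-GFP cell wells. Timing: cells overnight before dosing, compound overnight, 37 °C, 5% CO2. Measure: GFP/RFP fluorescence ratio.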
UUG fidelity: alters start codon recognition fidelity in yeast. S. cerevisiae UUG-firefly luciferase reporter, luminescence/redox ratio. activity score, % at 18.7 µM. actives 0.13% (n = 350,000). AID 602363;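 active means replicate mean at a twofold rise or more, about +100% in these data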;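 further: firefly luciferase made from a UUG start codon reports start codon fidelity; reporter light over untreated wells divided by growth signal over untreated wells; some hits fall short of that in this replicate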
CSC inhib: cancer stem cell inhibition; cancer stem cell-like cells viability, luminescence; inhibition, % at 7.5 µM; actives 1.1% (n = 300,000); AID 2717;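 active means mean at 75% or more and at least half the replicates too; tested in HMLE shEcad cells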;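 further: 0% = median of negative and 100% = median of positive control wells; the first replicate is given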
Rce1 inhib: blocks yeast Ras-converting enzyme. calls only. actives 0.27% (n = 290,000). AID 2563. yeast membranes, quenched prenylated peptide cleavage fluorescence. Q03530;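 active means fall in fluorescence gain of 50% or more versus controls, with final raw signal at or below 3038400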;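 further: plate controls were neutral control wells for no effect and wells lacking membranes for full effect; tested at 10 µM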
Target sequence (Q03530 whole entry, looked up): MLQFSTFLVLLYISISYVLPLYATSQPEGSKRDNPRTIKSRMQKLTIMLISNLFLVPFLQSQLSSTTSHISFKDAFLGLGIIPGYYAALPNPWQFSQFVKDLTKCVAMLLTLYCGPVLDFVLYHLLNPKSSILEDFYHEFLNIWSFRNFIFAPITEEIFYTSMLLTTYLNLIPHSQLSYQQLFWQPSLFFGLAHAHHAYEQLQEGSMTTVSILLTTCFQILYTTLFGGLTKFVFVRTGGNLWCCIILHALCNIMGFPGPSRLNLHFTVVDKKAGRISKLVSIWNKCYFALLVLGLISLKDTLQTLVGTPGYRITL
eIF4H inh: inhibitors of RNA binding by human eIF4H; eIF4H fluorescence polarization binding assay; inhibition, % at 35 µM; actives 0.94% (n = 290,000); AID 2012;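 active means 50% or more with normal probe brightness, or confirmed in later tests; about a fifth of its hits are not listed in these tables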;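 further: calls also rest on retests at 20 µM and on dose response follow-up; 0% = protein and probe with vehicle and 100% = probe without protein; strong numbers were not always called active; many hits fall short of the cut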
PABP polyA inh: PABP-poly(A) binding inhibition; P11940; PABP-poly(A) RNA binding, fluorescence polarization; inhibition, % at 35 µM; actives 1% (n = 290,000);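 active means 50% or more with normal probe brightness, or confirmed in later tests; about a fifth of its hits are not listed in these tables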;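 further: calls also rest on retests at 20 µM and on dose response follow-up; controls were probe without protein and protein plus probe with vehicle; some compounds called inactive have numbers as strong as hits; many hits fall short of the cut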
Target sequence (P11940 whole entry, looked up): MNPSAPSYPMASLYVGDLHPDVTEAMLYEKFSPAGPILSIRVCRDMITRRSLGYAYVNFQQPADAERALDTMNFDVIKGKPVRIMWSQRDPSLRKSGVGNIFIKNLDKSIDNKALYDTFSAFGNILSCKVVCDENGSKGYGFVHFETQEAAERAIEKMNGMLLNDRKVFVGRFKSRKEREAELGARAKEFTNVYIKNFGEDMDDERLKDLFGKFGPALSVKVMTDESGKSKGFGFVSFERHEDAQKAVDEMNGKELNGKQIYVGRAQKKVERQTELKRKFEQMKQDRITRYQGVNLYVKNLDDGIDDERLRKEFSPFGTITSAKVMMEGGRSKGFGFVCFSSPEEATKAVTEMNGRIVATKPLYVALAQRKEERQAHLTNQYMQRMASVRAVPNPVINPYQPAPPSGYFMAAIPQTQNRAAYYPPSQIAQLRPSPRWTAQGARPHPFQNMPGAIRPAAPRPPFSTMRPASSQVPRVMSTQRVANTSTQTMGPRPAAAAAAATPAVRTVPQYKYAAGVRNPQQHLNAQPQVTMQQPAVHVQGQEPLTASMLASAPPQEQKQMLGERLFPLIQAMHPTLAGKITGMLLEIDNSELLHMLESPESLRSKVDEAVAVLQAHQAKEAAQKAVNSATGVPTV
MT1-MMP act inh RFP: further read-out of MT1-MMP act inh, marked with its call; RFP signal change, %; measured here: RFP expression control read;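 0 = vehicle wells; hits needed this value within 50% of zero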
Starred values were filed as active, the others as inactive; i = inactive; / = no result given. An excerpt (hit frequency here may not be typical).

Each structure is followed by: Env fusion inh | MT1-MMP act inh | MT1-MMP act inh RFP | UUG fidelity | CSC inhib | Rce1 inhib | eIF4H inh | PABP polyA inh
> N#CCSc1nc2ccccc2c(=O)n1CC1CCCC1
    11 | -4 | -2 | -7 | 2 | i | 5 | 12
> NS(=O)(=O)c1ccc(Nc2ncccc2[N+](=O)[O-])cc1
    / | 1 | -1 | -17 | -8 | i | -3 | 0
> O=C(NN=c1c(=O)c2ccccc2c1=O)c1ccccc1
    / | 5 | 5 | -25 | -30 | i | -7 | 3
> CC(OC(=O)CCN=C1NS(=O)(=O)c2ccccc21)C(=O)c1ccccc1 (stereo not given)
    -9 | -4 | 0 | -10 | / | i | / | /
> CCC(=O)Nc1cccc(NC(=O)c2ccc(C)c([N+](=O)[O-])c2)c1
    -4 | 2 | -4 | -2 | 1 | i | 2 | 0
> CCNC(=S)N(Cc1cc2cc(C)c(C)cc2[nH]c1=O)C1CCCC1
    9 | -14 | -16 | -16 | -16 | i | 6 | -5
> CN(C)S(=O)(=O)c1ccc(Cl)c(NC(=O)CN2CCC(Cc3ccccc3)CC2)c1
    22 | 5 | -6 | / | -10 | i | -2 | 29
> N#Cc1ccc(C(=O)NC2=NCCS2)cc1
    -7 | 3 | 3 | -16 | / | i | 6 | 5
> Cc1ccccc1-c1nc(Cc2ccccc2)no1
    / | 8 | -1 | -19 | / | i | -12 | -1
> CC(=O)Nc1ccc(OCCOc2ccc(/C=C3\C(=N)N4N=C(C(C)C)SC4=NC3=O)cc2)cc1
    5 | -3 | -3 | / | 4 | i | 4 | 12

Some of these compounds in order of molecular weight, ascending.
Each structure is followed by: Env fusion inh | MT1-MMP act inh | MT1-MMP act inh RFP | UUG fidelity | CSC inhib | Rce1 inhib | eIF4H inh | PABP polyA inh
> N#Cc1ccc(C(=O)NC2=NCCS2)cc1
    -7 | 3 | 3 | -16 | / | i | 6 | 5
> Cc1ccccc1-c1nc(Cc2ccccc2)no1
    / | 8 | -1 | -19 | / | i | -12 | -1
> O=C(NN=c1c(=O)c2ccccc2c1=O)c1ccccc1
    / | 5 | 5 | -25 | -30 | i | -7 | 3
> NS(=O)(=O)c1ccc(Nc2ncccc2[N+](=O)[O-])cc1
    / | 1 | -1 | -17 | -8 | i | -3 | 0
> N#CCSc1nc2ccccc2c(=O)n1CC1CCCC1
    11 | -4 | -2 | -7 | 2 | i | 5 | 12
> CCC(=O)Nc1cccc(NC(=O)c2ccc(C)c([N+](=O)[O-])c2)c1
    -4 | 2 | -4 | -2 | 1 | i | 2 | 0
> CCNC(=S)N(Cc1cc2cc(C)c(C)cc2[nH]c1=O)C1CCCC1
    9 | -14 | -16 | -16 | -16 | i | 6 | -5
> CC(OC(=O)CCN=C1NS(=O)(=O)c2ccccc21)C(=O)c1ccccc1 (stereo not given)
    -9 | -4 | 0 | -10 | / | i | / | /
> CN(C)S(=O)(=O)c1ccc(Cl)c(NC(=O)CN2CCC(Cc3ccccc3)CC2)c1
    22 | 5 | -6 | / | -10 | i | -2 | 29
> CC(=O)Nc1ccc(OCCOc2ccc(/C=C3\C(=N)N4N=C(C(C)C)SC4=NC3=O)cc2)cc1
    5 | -3 | -3 | / | 4 | i | 4 | 12

(more compounds)
Each structure is followed by: Env fusion inh | MT1-MMP act inh | MT1-MMP act inh RFP | UUG fidelity | CSC inhib | Rce1 inhib | eIF4H inh | PABP polyA inh
> COc1ccc(OCC(=O)Nc2nccs2)cc1
    5 | 1 | -2 | -68 | 5 | i | 0 | -1
> C/C(=N\N1CCN(c2ccccc2)CC1)c1ccccc1O
    6 | 1 | 5 | -4 | -7 | i | -4 | -5
> N#Cc1ccc(OCC(=O)N2CCN(S(=O)(=O)c3ccc(Cl)s3)CC2)cc1
    5 | -4 | -17 | 1 | / | / | / | /
> COc1cc(/C=N/N(C)C)ccc1OC(=O)c1ccco1
    2 | -2 | 4 | / | 6 | / | -8 | 22
> CCc1nnc(NC(=O)c2ccc(-c3ccccc3F)o2)s1
    -18 | 0 | 1 | / | -18 | i | -3 | 0
> O=C1c2cc(S(=O)(=O)N(CCO)CCO)ccc2-c2ccc(S(=O)(=O)N(CCO)CCO)cc21
    -3 | 3 | -1 | / | -6 | i | / | /
> Cc1cc(C(=O)NC(C)C2CC2)c(Cl)cc1Cl (stereo not given)
    -4 | 1 | -1 | -12 | -7 | i | 0 | -1
> N/C(=N\OC(=O)c1ccc2ccccc2c1)c1ccncc1
    -98 | 2 | -1 | -32 | -1 | i | -8 | 4
> COc1ccc(C(=O)COC(=O)C2CCCN2C(=O)C23CC4CC(CC(C4)C2)C3)cc1 (stereo not given)
    -8 | -2 | 1 | / | -10 | i | -5 | 9
> Cc1ccn(CCC(=O)N2c3ccccc3CC2C)n1 (stereo not given)
    4 | -2 | 0 | -16 | -4 | i | 5 | -7

Next section.
Each structure is followed by: Env fusion inh | MT1-MMP act inh | MT1-MMP act inh RFP | UUG fidelity | CSC inhib | Rce1 inhib | eIF4H inh | PABP polyA inh
> CCOC(=O)C1CCCN(C(=O)CN(c2ccc(OC)cc2)S(=O)(=O)c2c(C)noc2C)C1 (stereo not given)
    4 | 1 | 5 | -2 | -13 | i | 5 | 1
> CCc1ccccc1N(CC(=O)N1CCN(c2ccccc2F)CC1)S(C)(=O)=O
    23 | 0 | -7 | / | -6 | i | -5 | -9
> NS(=O)(=O)c1ccc(S(=O)(=O)N(CCc2ccccc2)Cc2ccccn2)cc1
    14 | 1 | 0 | -16 | -8 | i | -12 | 2
> Cn1c(=O)cc(OCC(=O)NCCCN2CCN(c3ccccc3F)CC2)c2ccccc21
    -18 | 2 | 8 | 1 | -6 | i | -6 | -7
> COc1ccc(-n2nc(C(=O)NCC(=O)N3CCN(C)CC3)c3ccccc3c2=O)cc1OC
    -5 | 1 | 1 | 12 | 9 | i | -8 | -4
> CC1CCCCN1CCNC(=O)c1ccc2c(=O)n(CCc3ccccc3)c(=O)[nH]c2c1 (stereo not given)
    6 | -13 | -5 | / | 11 | i | -18 | -11
> CCC1OC(c2ccc([N+](=O)[O-])cc2)=Nc2ccccc21 (stereo not given)
    0 | 1 | 4 | -11 | -5 | i | -6 | 3
> COc1ccccc1C(=O)Nc1cccc(NC(=O)c2ccccc2C)c1
    -2 | -2 | -3 | -1 | -19 | i | 0 | -3
> CCCOn1c(OCC(C)C)nc2ccccc2c1=O
    -4 | 1 | 2 | -9 | 18 | i | 1 | 8
> O=C(CSc1ncnc2nc[nH]c12)N1CCN(c2ccccc2)CC1
    -14 | 0 | 1 | -7 | 27 | i | 7 | 7

Other structures follow:
Each structure is followed by: Env fusion inh | MT1-MMP act inh | MT1-MMP act inh RFP | UUG fidelity | CSC inhib | Rce1 inhib | eIF4H inh | PABP polyA inh
> O=C(NCCNC(=O)c1ccc(-c2cccc(Cl)c2)o1)c1cnccn1
    -11 | 0 | 2 | 5 | / | / | / | /
> Oc1ccc2ccccc2c1CNc1ccccn1
    5 | -4 | -3 | -6 | 0 | i | -10 | -14
> CCOc1ccc(NC(=S)N2CCC(NC(=O)c3ccco3)CC2)cc1
    -7 | 0 | -2 | -26 | -11 | / | -23 | -11
> Cc1c(-c2ccccc2)nc(N)c(C#N)c1-c1ccco1
    -15 | -13 | 5 | -17 | -17 | i | 22 | 34
> Cc1ccc(OCC(=O)O)c(-n2nc3ccccc3n2)c1
    / | 7 | -3 | -6 | -11 | i | 4 | 9
> COc1ccccc1OCCCOc1c(C)cc(C)cc1Br
    -69 | -2 | -1 | -2 | 11 | i | 8 | 14
> CN(C)/C(=N\O)c1c(Cl)cccc1Cl
    18 | 1 | 3 | / | -14 | / | -1 | 1
> Cc1onc(-c2ccccc2)c1C(=O)NCCCc1ccccc1
    1 | -1 | 1 | -33 | 5 | / | / | /
> C[N+]1(CC(=O)NNc2c3ccccc3nc3ccccc23)CCOCC1
    12 | / | / | / | -6 | i | -10 | -3
> CNC(=O)c1ccc(NC(=O)/C=C/c2cccc(F)c2)cc1
    -26 | -3 | -1 | / | 21 | i | 43 | -10

Further structures follow:
Each structure is followed by: Env fusion inh | MT1-MMP act inh | MT1-MMP act inh RFP | UUG fidelity | CSC inhib | Rce1 inhib | eIF4H inh | PABP polyA inh
> Cc1ccc(S(=O)(=O)Nc2ccc(Cl)cn2)cc1C
    -11 | 2 | 1 | -11 | 1 | / | -9 | -4
> Cc1ccc(-c2nnc3c4ccccc4c(C)nn23)cc1S(=O)(=O)N1CCN(CCO)CC1
    -119 | -6 | -3 | / | -8 | i | 3 | 7
> Clc1ccccc1Cn1nnc2ccccc21
    -348 | 2 | 1 | -5 | -12 | i | -2 | 1
> CC12CCC(=O)N1C(C(=O)NNC(=O)c1ccccc1)CS2 (stereo not given)
    0 | 1 | 1 | / | 4 | i | / | /
> C/C(Cc1ccccc1)=N\NC(=O)c1cccnc1
    -9 | -3 | 3 | / | 15 | i | -7 | -3
> CCc1ccc(OC(=O)c2cccnc2)cc1
    -6 | 1 | -1 | -11 | -8 | i | 5 | -5
> CCc1c(C2(O)CCCCC2)[nH]c2cc(C(F)(F)F)ccc12
    / | 2 | -4 | 11 | 130* | i | -8 | -6
> COc1ccc(C(N)c2csc(NC(=O)Nc3ccccc3C(C)(C)C)n2)cc1 (stereo not given)
    -28 | -33 | -32 | 15 | / | / | / | /
> COc1ccc(CNc2ncc(-c3ccccc3)n2C)cc1
    0 | -1 | -1 | -11 | -6 | i | 7 | 2
> COC(=O)CCC(=O)Nc1sc(Cc2ccccc2)c(C)c1C(N)=O
    -5 | 0 | 2 | / | -3 | i | -3 | 8

Later entries
Each structure is followed by: Env fusion inh | MT1-MMP act inh | MT1-MMP act inh RFP | UUG fidelity | CSC inhib | Rce1 inhib | eIF4H inh | PABP polyA inh
> CC(OC(=O)c1cccc(NS(C)(=O)=O)c1)C(=O)Nc1ccc(N2CCOCC2)cc1 (stereo not given)
    16 | 1 | -1 | -13 | / | i | -4 | -1
> CCn1cc(CN2CCCC(C(=O)Nc3ccc(-c4cscn4)cc3)C2)cn1 (stereo not given)
    3 | -1 | -2 | -15 | -3 | i | -13 | -11
> CCOC(=O)N1CCN(C(=O)COc2cccc3c2CCN(Cc2ccccc2C)C3=O)CC1
    / | -3 | -2 | / | -11 | i | 3 | -2
> COc1ccc(OCCOCCN2CCc3ccccc3C2)cc1
    11 | -1 | 2 | 1 | -4 | i | -8 | 9
> Cc1ccc2nc3c(cc(C#N)c(=N)n3Cc3cccnc3)c(=O)n2c1
    / | / | / | / | -4 | i | 21 | 1
> CCOc1ccc(NC(=O)C/C(N)=N/O)cc1
    / | 3 | 1 | -8 | 17 | i | 1 | 14
> O=C(NCc1ccccc1)C(c1cccnc1)N(Cc1ccco1)C(=O)c1ccccn1 (stereo not given)
    -33 | -5 | -10 | 4 | -8 | i | -3 | -2
> CCC(C)NC(=O)CCn1c(=O)c2cccn2c2ccc(F)cc21 (stereo not given)
    -1 | 2 | -1 | 8 | -9 | i | 5 | 1
> Cc1ccc([N+](=O)[O-])c(OCCCN2CCCCCC2)c1
    -11 | -2 | -2 | / | -1 | i | 0 | -4
> CCOc1ccc2nc(SCC(=O)NC(=O)NCc3ccco3)[nH]c2c1
    / | 1 | 0 | -9 | -8 | i | / | /

(more compounds)
Each structure is followed by: Env fusion inh | MT1-MMP act inh | MT1-MMP act inh RFP | UUG fidelity | CSC inhib | Rce1 inhib | eIF4H inh | PABP polyA inh
> Cc1ccccc1-n1ncc(C(C)NC(=O)c2ccco2)c1C (stereo not given)
    -3 | 5 | 5 | / | -2 | i | -9 | 1
> CCc1nc2ccc(C(=O)N3CCN(c4cccc(C(F)(F)F)c4)CC3)cc2nc1CC
    12 | 2 | 2 | 3 | -1 | i | -14 | -16
> COc1ccccc1N1CCN(/N=C/c2cccc(OC)c2OC)CC1
    -4 | 5 | 6 | 0 | 0 | i | -1 | 5
> O=C(c1cnc2ccccn2c1=O)N1CCCc2ccccc21
    17 | -2 | 6 | 8 | -10 | / | -3 | -7
> CC(=O)Oc1ccc(/C=C(\NC(=O)c2ccco2)C(=O)Nc2ccc(C(C)=O)cc2)cc1
    -37 | -2 | -2 | -17 | -3 | i | -2 | 2

High-throughput results from PubChem BioAssay.
